# Calb FLC: C. albicans growth modulation with fluconazole. C. albicans CaCi-2 (fluconazole-resistant clinical isolate) + fluconazole, Alamar Blue growth, 48 h. growth inhibition, % (no concentration beside the values). 0.57% of 300,000 active. AID 1979;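 active = most replicates above 75%; inconclusive = exactly half above 75%; inactive = most below 75%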;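 also: all wells also contain fluconazole at 8 µg/ml as a sub-toxic cotreatment; 0% = median of DMSO wells and 100% = median of geldanamycin control wells; wells of about 8 µL received 7.5 nL stock; the first replicate is given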
# LANA-H2A inh: blocks KSHV LANA binding to histone H2A/H2B | Q9QR71 | inhibition, % (test concentration not listed) | 0.6% of 320,000 active | cell-free LANA-H2A/H2B peptide, fluorescence polarization | AID 2629; in the data active = inhibition mostly above about 10%, no sharp cut-off; inactive = mostly below about 6.7%;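 also: stock transfer was 7.5 nL into about 10 µL; 0% = median of vehicle wells and 100% = median of positive control wells; one replicate is shown; the record names a cut of 25% in any replicate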
# Target sequence (Q9QR71 whole entry, looked up): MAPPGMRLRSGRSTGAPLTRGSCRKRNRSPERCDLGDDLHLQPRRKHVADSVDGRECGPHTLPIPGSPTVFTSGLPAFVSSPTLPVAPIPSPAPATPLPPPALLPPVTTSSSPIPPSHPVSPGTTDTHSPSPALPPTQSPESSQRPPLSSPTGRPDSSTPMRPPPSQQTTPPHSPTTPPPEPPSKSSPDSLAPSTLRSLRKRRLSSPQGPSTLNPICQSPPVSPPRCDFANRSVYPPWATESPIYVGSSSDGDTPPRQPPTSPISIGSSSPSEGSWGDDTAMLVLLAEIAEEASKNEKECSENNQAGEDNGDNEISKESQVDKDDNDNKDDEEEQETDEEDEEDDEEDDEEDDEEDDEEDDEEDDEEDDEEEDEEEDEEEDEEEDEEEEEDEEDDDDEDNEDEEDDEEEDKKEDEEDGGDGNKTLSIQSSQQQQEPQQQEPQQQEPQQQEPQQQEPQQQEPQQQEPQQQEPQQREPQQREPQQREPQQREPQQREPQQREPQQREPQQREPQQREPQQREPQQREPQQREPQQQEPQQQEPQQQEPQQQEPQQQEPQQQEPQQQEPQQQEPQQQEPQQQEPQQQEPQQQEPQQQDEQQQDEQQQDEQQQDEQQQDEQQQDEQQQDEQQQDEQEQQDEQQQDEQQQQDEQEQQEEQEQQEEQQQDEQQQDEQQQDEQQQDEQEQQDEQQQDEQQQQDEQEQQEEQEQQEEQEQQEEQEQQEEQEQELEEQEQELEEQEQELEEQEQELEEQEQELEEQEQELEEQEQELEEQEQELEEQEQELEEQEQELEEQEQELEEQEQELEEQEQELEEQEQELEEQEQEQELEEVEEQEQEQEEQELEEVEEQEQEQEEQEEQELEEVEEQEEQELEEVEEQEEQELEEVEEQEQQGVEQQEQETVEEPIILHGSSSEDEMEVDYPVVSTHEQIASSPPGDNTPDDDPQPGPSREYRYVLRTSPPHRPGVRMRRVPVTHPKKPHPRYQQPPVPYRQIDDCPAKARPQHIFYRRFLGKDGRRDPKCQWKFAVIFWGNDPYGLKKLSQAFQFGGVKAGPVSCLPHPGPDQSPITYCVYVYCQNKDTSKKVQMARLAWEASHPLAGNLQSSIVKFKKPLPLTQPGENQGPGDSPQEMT
# MLL AF4-AF9 inh: blocks AF4 peptide binding to human AF9; 0.47% of 350,000 active; AlphaScreen, biotin-AF4 peptide binding to FLAG-AF9; P42568; inhibition, % at 10 µM;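 active = every replicate reaching a set inhibition limit, whatever the replicate mean, cut at about 25% in these data; inconclusive = mean inhibition reaches that limit but some replicates miss it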;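 also: 0% = plate neutral control median and 100% = total signal loss; the record names both 10 and 1 µM as test concentration; the first replicate is given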
# Bfl-1 A1 inh: inhibitors of the anti-apoptotic protein A1, read as caspase activation; MEF A1-2A-BIM cells, Caspase-Glo 3/7 luminescence, 3 h; percent of clofoctol response, vehicle zero; caspase activation, % (concentration not given with the values); 0.066% of 330,000 active; AID 2462;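 active = over half of replicate activation scores above 10%, or exactly half above 10 with the replicate mean above 10; inconclusive = replicate mean below 10 yet half the replicates above 10; inactive = over half of replicates below 10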;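 also: wells of about 30 µL received 50 nL stock; many hits fall short of the cut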
# Vif TR-FRET: inhibitors of Vif binding to APOBEC3G peptide, primary screen, biochemical, TR-FRET, GST-Vif 1-94, biotin-A3G peptide, dose response retest (AID 1117319) | inhibition, %, or IC50 in µM where a hit was titrated | 0.57% of 260,000 active | TR-FRET GST-Vif / biotin-A3G peptide binding; higher % means a stronger effect; test concentration not given here; strong numbers were not always called active;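 active = above the screen mean plus three standard deviations and confirmed in dose response; inconclusive = results disagree or hit not tested in dose response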;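 also: Vif residues 1-94 fused to GST binding biotinylated APOBEC3G peptide 110-148; 0% = full assay without inhibitor and 100% = GST in place of GST-Vif; retest series ran down from 100 µM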
# T cruzi repl: blocks replication of Trypanosoma cruzi. T. cruzi beta-gal in NIH3T3, luminescence, 90 h. inhibition, % (concentration not given with the values). 1.4% of 300,000 active. AID 1885;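 active = mean inhibition across valid replicates above about 55%, limit read from the data; inconclusive = mean below that limit but half or more replicates reach it; inactive = mean below it, under half of replicates reach it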;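 also: signal also drops with host cell toxicity which is not excluded here; 0% = plate median of DMSO wells and 100% = zero luminescence signal; higher percent means less beta-gal luminescence so fewer parasites; stock transfer was 50 nL into about 50 µL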
# Beta cell apopt: blocks beta cell apoptosis | INS-1E cytokine-induced death, ATP luminescence, 48 h; percent of positive-control rescue, neutral wells zero | protection from apoptosis, % (no concentration beside the values) | AID 435005 | 0.8% of 300,000 active;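 active = all replicates at 75% or more, or half of them and the mean; inconclusive = half reach 75% but not the mean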;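 also: 0% = cytokine-treated negative control wells and 100% = positive control rescue; higher means more ATP so stronger rescue from cytokine killing; wells of about 40 µL received 100 nL stock; the first replicate is given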
# RanGTP-Imp inh: disruptors of Ran-importin-beta complex formation – biochemical, FRET, CFP-Ran, YFP-importin-beta, homogeneous, primary screen; cell-free CFP-Ran/YFP-importin-beta FRET ratio; inhibition, % (no concentration beside the values); 1.1% of 300,000 active; AID 2216;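 active = most replicates above 15%; inconclusive = exactly half above 15%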;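 also: 0% = DMSO wells and 100% = Ran loaded with GDP instead of GTP; wells of about 40 µL received 100 nL stock; the first replicate is given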
# * hit, by the source's call; ? = inconclusive; . = not tested or not shown; & = joins results of further samples.
Compound	Calb FLC	LANA-H2A inh	MLL AF4-AF9 inh	Bfl-1 A1 inh	Vif TR-FRET	T cruzi repl	Beta cell apopt	RanGTP-Imp inh
Cc1ccc(NC(=O)c2cc(S(=O)(=O)Nc3ccc(C)cc3)cs2)cc1	1	-2.0	.	0.4	-7%	-6	-1	1.6
CCOC(=O)c1c(NC(=O)CSc2nnc(C)s2)sc2c1CCN(C)C2	-5	-7.6	.	-0.5	10%	27	6	27*
COc1ccc(C(=O)NC(=C(Cl)Cl)S(=O)(=O)c2ccc(C)cc2)cc1	2	-3.0	-2.2	0.7	.	-27	-8	0.7
Cc1ccc(CNC(=O)C2CC(c3ccccc3F)=NO2)cc1 (stereo not drawn)	-7	-1.4	-3.2	-0.2	-1%	-4	-7	4.0
CC(Oc1ccc(Br)cc1Br)C(=O)Nc1cccnc1 (stereo not drawn)	4	2.3	0.3	-1.3	.	.	-5	.
COc1ccccc1-c1cc(C(=O)N2CCCC2)no1	-12	1.1	-3.4	-2.1	11%	-10	1	2.1
Cc1cccc(Oc2cc(N)cc([N+](=O)[O-])c2)c1	17	-2.3	8.9	0.3	3%	14	-2	-0.9
O=C(COC(=O)COc1ccc(Cl)cc1Br)NC1CC1	.	-1.4	-2.9	0.4	-4%	.	-3	.
COc1ccc2c(c1)CC/C(=C/c1ccco1)C2=O	0	5.0	15	-3.9	26%	3	-6	-1.7
COCCn1c(-c2ccccc2Cl)nc2c(c(=O)c3ccccc3n2C)c1=O	-1	2.7	-0.4	1.1	-6%	4	1	-1.3
COc1ccc(NC(=O)c2cc(-c3ccccc3)on2)cc1OC	7	3.2	5.2	-1.2	.	0	12	4.1
CCOC(=O)c1cnc(SCc2ccc(C(C)(C)C)cc2)nc1N	9	-2.6	.	-0.1	4%	27	1	2.3
Oc1ccc(-c2n[nH]c(C(F)(F)F)c2-c2ccccc2)c(O)c1	-3	-2.8	1.9	-0.2	9%	-48	105*	?
COc1ccc(NS(=O)(=O)c2cccc(C(=O)N3CCN(c4ccccc4O)CC3)c2)cc1	2	.	-6.5	-0.6	-1%	7	7	-1.7
CCOc1ccc(CCNC(=O)c2cccc(S(=O)(=O)N3CCN(C(C)=O)CC3)c2)cc1OCC	-5	0.7	0.5	-0.5	-4%	-1	.	5.8
O=C(CSc1ncn[nH]1)Nc1ncc(C(F)(F)F)cc1Cl	5	2.2	-1.4	1.0	-1%	-9	.	?
COc1cccc2cccc(/C=N/n3cnnc3)c12	14	-10	-1.3	0.4	-5%	18	-3	-6.7
Cc1cccc(C)c1NC(=O)C1(N(C(=O)c2ccccn2)c2ccc(O)cc2)CCCCC1	-4	-0.1	-5.0	0.8	.	-2	-9	1.7
CC(C)(C)SCCNC(=O)c1ccc(Cl)c(S(=O)(=O)N2CCOCC2)c1	5	1.4	.	-0.5	.	11	-1	-0.6
O=[N+]([O-])c1ccc(O)c(/C=N/Nc2nn[nH]n2)c1	37	3.3	-0.6	0.2	.	2	-8	-12
CN(C(=O)CN1C(=O)NC(C)(CCc2ccccc2)C1=O)c1ccccc1 (stereo not drawn)	0	-1.8	0.6	0.8	4%	-3	1	3.8
COc1ccc(C(=O)Nc2ccc(S(=O)(=O)Nc3nccc(C)n3)cc2)cc1	-5	1.6	-1.6	0.3	-5%	-9	-4	-1.4
CCS(=O)(=O)N1CCC(C(=O)Nc2cc([N+](=O)[O-])ccc2C)CC1	-1	1.8	-6.9	0.1	16%	7	-1	0.4
CCc1nc(N2CCC3(CC2)OCCO3)c2nnn(Cc3ccccc3Cl)c2n1	-2	9.0	.	-0.2	0%	0	6	2.8
COc1ccc(Cn2nnnc2CN2CCc3ccccc3C2)cc1	23	-0.2	.	-0.9	5%	10	.	1.2
O=C(CCNC(=O)c1ccco1)Nc1cccc(Br)c1	0	-1.2	0.0	-0.5	-4%	-9	-4	0.5
COc1cc2c(cc1OC)-c1cc3ccc4c(c3c[n+]1CC2)OCO4	21	-11	-7.9	-0.5	?	48	2	-31
COc1cccc(OC)c1C(=O)NCCSC1CCCCC1	-28	-13	-7.0	0.2	-1%	-10	4	-1.8
C/C(=N/NC(=O)c1ccc(Br)o1)c1cccc(NC(=O)c2ccc(F)cc2)c1	-6	-7.6	2.4	-0.4	19%	13	.	2.7
N#C/C(=C\c1c[nH]c2ccccc12)C(N)=O	1	1.0	1.3	0.7	.	-8	-11	6.6
Cc1cccnc1CN1CCN(C(=O)CCc2nnc(CCc3ccccc3)o2)CC1	4	-1.0	0.6	-0.6	.	-3	1	4.1
CC1CCN(CCOc2ccccc2-c2ccccc2)CC1	16	1.6	.	0.3	6%	-12	.	3.4
COC(=O)C1=C(C)Nc2ncnn2C1c1ccccn1 (stereo not drawn)	-15	2.6	.	-4.1	1%	-1	-1	0.5
Cc1c(Cl)cccc1NC(=O)CC1NCCNC1=O (stereo not drawn)	-48	1.3	.	0.9	10%	-11	-1	-2.3
Cn1c(CN2CCCCC2)c(C#N)c2ccccc21	6	5.2	10	0.1	-4%	8	4	1.6
Cc1ccccc1OCC(=O)NCCS(=O)(=O)N1CCN(c2ccc(F)cc2)CC1	0	2.0	-2.7	2.8	-8%	-2	-1	1.6
CS(=O)(=O)n1nc(C(=O)N2CCOCC2)nc1N	18	-2.8	.	-0.3	0%	-15	-1	-2.8
CC(=O)C(=Cc1ccc(O)cc1)C(C)=O	7	-0.5	-0.8	0.2	1%	-6	-6	4.0
COc1cc(C(=O)NC2CCCc3c2cnn3-c2ccccc2F)cc(OC)c1OC (stereo not drawn)	29	-2.8	-1.7	0.2	.	-64	20	0.8
C[C@H]1COC(=O)[C@H](CC(=O)OC(C)(C)C)C/C=C\C[C@H](CC(=O)N(CCO)Cc2ccccc2)C(=O)N1	.	1.1	3.6	2.2	.	.	1	.
NC(=O)c1ccsc1NC(=O)C1CCCN1S(=O)(=O)c1ccc(Cl)cc1 (stereo not drawn)	-13	-2.3	.	-1.3	4%	-5	-1	-1.4
CC(=O)NCCCc1nc2ccccc2n1Cc1ccc(C)cc1	0	-1.2	.	?	0%	-14	-11	-0.1
O=c1c(Cc2c(F)cccc2Cl)c(O)ccn1CCCn1ccnc1	1	-0.1	-0.3	0.3	1%	-11	-11	-1.0
CCOC(=O)N1CCN(C(=O)CCN2C(=O)COc3ccc(C)cc32)CC1	4	1.7	.	0.3	6%	-3	-2	6.7
Cc1c(-c2ccccn2)c(=O)[nH]n1-c1ccc(F)cc1	1	1.4	6.9	-0.2	.	-5	0	4.3
Cc1cc(C)cc(NC(=O)CC2NCCNC2=O)c1 (stereo not drawn)	-10	3.4	.	0.3	5%	-10	-2	-1.1
CCOC(=O)c1c(N)nn(C(=O)c2ccccc2)c1-c1ccccc1	-7	-6.1	-2.6	1.0	-6%	-7	-14	-7.1
Cc1nn(Cc2ccc([N+](=O)[O-])cc2)c(=O)n1-c1ccc(Cl)cc1	5	-1.0	2.7	-1.0	-1%	-3	-1	7.0
CCn1cc(C(=O)O)c(=O)c2cc(F)c(N3CCN(S(=O)(=O)c4ccc5c(c4)OCCO5)CC3)cc21	-9	1.8	-0.6	0.3	-4%	2	4	-2.2
Cc1ccc(NC(=O)CSc2nnc(C)c(=O)n2N)cc1	-28	-3.5	-2.6	-0.6	11%	-6	-3	-1.2
COC(=O)c1cn[nH]c1NC(=S)Nc1ccc(Cl)c(Cl)c1	28	-0.7	.	0.4	-5%	9	11	3.2
C[C@H](CO)N1C[C@H](C)[C@@H](CN(C)Cc2ccc(-c3ccccc3)cc2)Oc2c(NC(=O)Nc3ccc4c(c3)OCO4)cccc2C1=O	.	0.9	3.4&0.0	0.3	.	.	0	.
Cc1cc(C)n(CC(=O)N/N=C/c2c[nH]c3ccccc23)n1	6	1.2	4.6	-1.0	2%	-9	-3	7.6
CCCOc1cccc(C(=O)N(Cc2ccco2)C2CCS(=O)(=O)C2)c1 (stereo not drawn)	.	-1.2	.	0.3	25%	-7	-12	-3.2
COCCn1c(=S)[nH]c2cc(C(=O)N3CCc4ccccc4C3)ccc2c1=O	-3	-4.9	-4.4	-1.2	-9%	-2	3	1.9
CC12CCC(=O)N1C(C(=O)Nc1ccc(SC(F)F)cc1)CS2 (stereo not drawn)	-3	-0.3	-1.3	0.5	2%	6	.	3.9

# New compounds follow.
Compound	Calb FLC	LANA-H2A inh	MLL AF4-AF9 inh	Bfl-1 A1 inh	Vif TR-FRET	T cruzi repl	Beta cell apopt	RanGTP-Imp inh
O=C(c1ccc(N2CCCCC2)c([N+](=O)[O-])c1)N1CCOCC1	-6	-3.5	.	0.9	5%	-9	2	-2.2
Cc1cc(Cl)c(S(=O)(=O)N2CCCC2)cc1OCC(=O)NC1CCCCC1	-2	6.5	.	-0.3	-1%	8	6	24*
Cc1cc(=O)[nH]c(N/N=C/c2ccc(O)c(O)c2)n1	-3	0.4	-0.5	-0.5	18%	-1	-4	4.9
COc1ccc(NC(=O)NCc2ccccn2)c(OC)c1	12	-2.9	-11	0.1	-9%	-15	-2	-1.2
COc1ccc(NC(=O)CCCNC(=O)c2ccc(Cl)cc2)cc1OC	.	1.4	-4.3	-0.2	-7%	-4	1	0.5
C=COCCNC(=O)Nc1ccc(Cl)c(Cl)c1	-17	0.4	2.1	-1.1	29%	10	.	4.1
CCOC(=O)C1CCCN(C(=O)CNC(=O)c2nn(-c3ccc(OC)c(Cl)c3)c(=O)c3ccccc23)C1 (stereo not drawn)	35	3.5	2.1	-0.5	.	14	-2	-2.3
COCCCNS(=O)(=O)c1ccc(OC)c(Cl)c1Cl	16	4.1	-22	-0.3	?	-1	-3	-2.1
Cc1ccc(OCc2nnc(SCc3ccc(C#N)cc3)n2-c2ccc(C)cc2)cc1	-18	2.1	.	-0.3	7%	38	-4	-0.7
CCOC(=O)c1c(C)[nH]c(C)c1C(=O)COC(=O)c1ccc(S(=O)(=O)N(CC)CC)cc1	1	6.2	.	-0.1	-2%	19	-8	?
Cc1c(C(C)C)c(=O)n(-c2ccc(S(=O)(=O)NC3CCCCC3)cc2)n1C	-8	-5.3	-1.5	-1.7	-1%	-9	57	-1.9
COc1cc(CC(=O)O)ccc1OCc1ccccc1	5	-1.4	.	-0.3	-6%	-19	-1	-1.0
CCCc1ccc(OCc2ccc(C(=O)N3CCSCC3)o2)cc1	9	-1.3	4.1	0.0	.	15	.	-5.6
CCOC(=O)c1ccc(N2C=C(C(=O)OC)C(c3cccc(O)c3)C(C(=O)OC)=C2)cc1	-5	-2.1	-6.9	-0.6	-12%	-12	7	-1.1
Cc1ccccc1-c1nc(CS(=O)(=O)CC(=O)NC2CCCC2)c(C)o1	5	-2.1	-3.6	0.5	.	5	3	-1.4
COC(=O)c1cc(C(=O)Nc2nnc(CC(C)(C)C)s2)cc([N+](=O)[O-])c1	39	-7.1	.	0.5	10%	15	7	4.6
Cc1cc(Cl)ccc1OCC(=O)N1CCN(c2ncccn2)CC1	10	-2.1	-0.2	1.4	.	-2	3	-2.3
Cn1c(=O)c2[nH]c(CNCc3ccccc3Cl)nc2n(C)c1=O	3	1.1	.	-0.8	11%	-10	8	7.4
CCC1(c2ccc(F)cc2)NC(=O)N(CC(=O)N2CC(=O)Nc3ccccc32)C1=O (stereo not drawn)	-1	3.3	-1.7	0.5	0%	0	.	0.6
